Anaer choline gr: growth inhibitors of anaerobic choline-fed gram-negatives, minimal medium, absorbance; actives 0.2% (n = 55,000); calls only; Gram-negative bacterium anaerobic choline minimal medium; active compounds read low; many inactives read as strong as hits in the columns shown;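 active = growth z-score on choline under -2 at 7 or 20 h with little or no fall on glycerol, limits in tiers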;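 note: stock transfer was 300 nL into about 50 µL; the organism is E. coli; final concentration not given here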
Anaer choline gr early: recorded beside Anaer choline gr, whose call it bears; z-score; measured here: choline growth z-score, timepoint 1;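 score of optical density at 7 h as mean of two plates; lower means less growth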
* = called active by the depositor; & = joins results of further samples. These rows are one share of the data; rates above refer to the full screens.

For CC1(C(=O)Nc2ccccc2)Cc2ccccc2C(=O)O1 (stereo not given) the results were Anaer choline gr inactive and Anaer choline gr early -0.05.
`Cc1ccccc1-c1nn2c(=O)cc(CN3CCN(C(=O)Nc4ccc5c(c4)OCCO5)CC3)nc2s1` gave Anaer choline gr inactive and Anaer choline gr early 0.4.
O=C(NCC(=O)N1CCN(C2CCCCC2)CC1)c1ccc(-c2noc(C3CCCC3)n2)cc1 was read as Anaer choline gr inactive and Anaer choline gr early 0.59.
`Cc1ccccc1NC(=O)COc1cccc(-c2nc(-c3ccccc3)no2)c1` gave Anaer choline gr inactive and Anaer choline gr early -0.13.
`Cc1[nH]c(C)c(S(=O)(=O)N2CCN(c3ccccn3)CC2)c1C(=O)N1CCCC1` gave Anaer choline gr inactive and Anaer choline gr early -0.25.
Screening COc1ccc(-c2nnc(SCc3cc(=O)n4c(C)csc4n3)o2)cc1OC returned Anaer choline gr inactive and Anaer choline gr early 0.85.
For CCN(CC)C(=O)CN1CCN(c2ncc(NC(=O)c3ccc(Cl)cc3)cc2C(=O)O)CC1 the results were Anaer choline gr inactive and Anaer choline gr early -1.1.
For CCc1cc(-c2csc(S(=O)(=O)NCc3ccc(OC(C)C)cc3)c2)on1 the results were Anaer choline gr inactive and Anaer choline gr early 0.66.
Screening COCCNCc1ccc(-c2cccc(C(F)(F)F)c2)o1 returned Anaer choline gr inactive and Anaer choline gr early -0.01.
`CCc1onc(C)c1C1CCCN1Cc1ccncc1` (stereo not given) gave Anaer choline gr inactive and Anaer choline gr early -0.47.
`O=C(CN1c2ccc(Br)cc2-c2ccccc2S1(=O)=O)NCC1CCCO1` (stereo not given) gave Anaer choline gr inactive and Anaer choline gr early 1.1.
Screening CNC(=O)N1CCCN(S(C)(=O)=O)CC1 returned Anaer choline gr inactive and Anaer choline gr early -0.92.
For O=C(Nc1ccc2c(c1)OCCO2)C1Cc2ccccc2CN1S(=O)(=O)c1ccccc1 (stereo not given) the results were Anaer choline gr inactive and Anaer choline gr early 0.82.
Screening CCC(C)[C@H](NS(=O)(=O)c1cccc2ccccc12)C(=O)N[C@H](C=O)Cc1c[nH]c2ccccc12 (stereo not given in full) returned Anaer choline gr inactive and Anaer choline gr early 0.31.
Screening Cc1c(C2CCN(S(=O)(=O)c3cnc[nH]3)CC2)c2ccccc2n1Cc1ccc(F)cc1 returned Anaer choline gr inactive and Anaer choline gr early 0.14.
For CCOC(=O)c1c(NC(=O)CN2C(=O)c3ccccc3C2=O)sc2c1CCN(CC)C2 the results were Anaer choline gr inactive and Anaer choline gr early -0.95.
For Cc1cccc(C(=O)N2CCc3cc(CNS(=O)(=O)c4ccc(F)cc4)ccc32)c1 the results were Anaer choline gr inactive and Anaer choline gr early 0.63.
`O=C(O)CN1C(=O)[C@@H]2Cc3ccccc3CN2C1=O` gave Anaer choline gr inactive and Anaer choline gr early 0.44.
Screening CCOc1ccc(-c2noc(CSc3nccn3-c3cccc(OC)c3)n2)cc1 returned Anaer choline gr inactive and Anaer choline gr early 1.5.
For Cc1cccc(N(C)S(=O)(=O)c2ccsc2-c2nc(C)no2)c1 the results were Anaer choline gr inactive and Anaer choline gr early -0.51.
CCCCc1c(C)[nH]n(-c2nc(C)c(C(=O)N3CCN(c4ccccc4)CC3)s2)c1=O was read as Anaer choline gr inactive and Anaer choline gr early 0.23.
O=C(NCc1ccccc1)c1cccc(C2CCCN(C(=O)c3ccccc3)C2)c1 (stereo not given) was read as Anaer choline gr inactive and Anaer choline gr early -1.8.
Cc1ccc(NC(=O)c2ccc3c(c2)NC(=O)CO3)cc1 was read as Anaer choline gr inactive and Anaer choline gr early -1.5.
Screening COC(=O)c1c(-c2ccc(Br)cc2)noc1N returned Anaer choline gr inactive and Anaer choline gr early 0.14.
Screening CCNc1nc(-c2ccccc2F)no1 returned Anaer choline gr inactive and Anaer choline gr early -1.5.
`COC(=O)c1ccc(C2C3=C(CC(c4ccc(OC)cc4)CC3=O)Nc3ncnn32)cc1` (stereo not given) gave Anaer choline gr inactive and Anaer choline gr early -0.72.
`Cc1ccc(NC(=O)N(C)CCc2noc(C3CCCCC3)n2)c(C)c1` gave Anaer choline gr inactive and Anaer choline gr early -0.96.
Cc1ccc(-c2csc3c2ncn2c(=O)n(CC(=O)Nc4c(C)cc(C)cc4C)nc32)cc1 was read as Anaer choline gr inactive and Anaer choline gr early -0.73.
`O=C(Cn1cnc2c([nH]c3ccc(Br)cc32)c1=O)N1CCN(c2ccc(F)cc2)CC1` gave Anaer choline gr inactive and Anaer choline gr early 0.53.
For O=C(Nc1cccc(O)c1)c1nc(-n2cnnc2)ccc1Br the results were Anaer choline gr inactive and Anaer choline gr early -1.8.
Screening Cc1c(NS(=O)(=O)c2ccc3c(c2)NCCS3)c(=O)n(-c2ccccc2)n1C returned Anaer choline gr inactive and Anaer choline gr early -0.94.
CCCN1C(=O)c2c(-n3cccc3)c3cc(C)ccc3n2CC1(C)C(=O)NC1CCCC1 (stereo not given) was read as Anaer choline gr inactive and Anaer choline gr early 0.02.
CCCn1c(C)ccc(-c2noc(CCCC(=O)NCc3ccccc3)n2)c1=O was read as Anaer choline gr inactive and Anaer choline gr early -0.09.
Screening O=C(NCc1noc(C2CCCC2)n1)C1CCCCC1 returned Anaer choline gr inactive and Anaer choline gr early -0.72.
For CCOCC(=O)N1CCN(c2cc(=O)n(C)c(=O)n2C)CC1 the results were Anaer choline gr inactive and Anaer choline gr early -0.56.
`CC1CCN(c2cc(C(C)C)nc3nc(-c4cccnc4)nn23)CC1` gave Anaer choline gr inactive and Anaer choline gr early 0.03.
For O=S(=O)(NCC1CCCO1)c1ccc(S(=O)(=O)N(Cc2ccc(F)cc2)C2CCCCC2)cc1 (stereo not given) the results were Anaer choline gr inactive and Anaer choline gr early -0.56.
`Cn1cc(S(=O)(=O)N2CCc3ccccc32)cc1C(=O)N1CC=C(c2ccccc2)CC1` gave Anaer choline gr inactive and Anaer choline gr early 0.92.
Screening c1ccc(-c2noc(-c3ccc(N4CCOCC4)nn3)n2)cc1 returned Anaer choline gr inactive and Anaer choline gr early 0.04.
`Cc1cccc(-c2noc(-c3ccc(NCCc4ccc(S(N)(=O)=O)cc4)nc3)n2)c1` gave Anaer choline gr inactive and Anaer choline gr early -0.1.
For Cc1ccc(S(=O)(=O)N2CSC[C@@H]2C(=O)NCc2csc(C)n2)c(C)c1 the results were Anaer choline gr inactive and Anaer choline gr early 0.97.
For NC(=O)c1nc(Nc2ccccc2)sc1NC(=O)C1=Cc2ccccc2OC1 the results were Anaer choline gr inactive and Anaer choline gr early -1.1.
`O=S(=O)(c1cccc2nsnc12)N1CCN(Cc2noc3ccccc23)CC1` gave Anaer choline gr inactive and Anaer choline gr early 0.7.
Screening Cc1csc(-c2cc(S(=O)(=O)N(C)Cc3ccco3)c(C)n2C)n1 returned Anaer choline gr inactive and Anaer choline gr early 0.19.
`Cc1cccc(C)c1NC(=O)CCc1nc(CSc2nc3ccccc3s2)no1` gave Anaer choline gr inactive and Anaer choline gr early 0.46.
Screening Cc1ccc(C2CC(=O)N(c3ccc(F)cc3F)C(=O)C2)cc1 returned Anaer choline gr inactive and Anaer choline gr early -1.2.
Cc1ccc(CNC(=O)CN2CCN(C(=O)Nc3ccccc3)CC2=O)cc1 was read as Anaer choline gr inactive and Anaer choline gr early -0.16.
CN(C)CCCN(C(=O)c1ccccc1Cl)c1nc2ccc(F)cc2s1 was read as Anaer choline gr inactive and Anaer choline gr early -0.55.
Screening Cc1cc(NC2CCCCC2)ncn1 returned Anaer choline gr inactive and Anaer choline gr early -1.7.
Screening Cc1cccc(-c2cc(N3CCN(S(=O)(=O)c4ccc(F)c(Cl)c4)CC3)ncn2)c1 returned Anaer choline gr inactive and Anaer choline gr early 1.9.
Screening O=C1CC(c2ccc(Br)cc2)c2scc(-c3ccc(F)cc3)c2N1 (stereo not given) returned Anaer choline gr inactive and Anaer choline gr early 1.9.
For Cc1cc(C)c(/C=C/c2onc(C)c2S(=O)(=O)N2CCCC(C(=O)N3c4ccccc4CC3C)C2)c(C)c1 (stereo not given) the results were Anaer choline gr inactive and Anaer choline gr early 1.6.
Screening COc1ccc(CNC(=O)C2(C)CCCN(S(=O)(=O)c3cc(C)ccc3NC(C)=O)C2)cc1 (stereo not given) returned Anaer choline gr inactive and Anaer choline gr early -0.73.
COC(=O)c1sccc1NC(=O)NCc1c(-n2cccc2)sc2c1CCN(C)C2 was read as Anaer choline gr inactive and Anaer choline gr early 0.15.
Cc1oc2ncnc(N3CCC(C(=O)NCc4ccc(Cl)cc4)CC3)c2c1C was read as Anaer choline gr inactive and Anaer choline gr early -1.1.
For Cc1cc(C)c2c(-n3cccc3)c(C(=O)N3CCN(C4CCCCC4)CC3)sc2n1 the results were Anaer choline gr inactive and Anaer choline gr early -2.1.
For Cc1ccc(-c2nn3c(=O)c(NC(=O)c4cccc(C)c4)cnc3o2)cc1 the results were Anaer choline gr inactive and Anaer choline gr early 0.14.
`Cc1cc(N2CCCC2)nc(Nc2ccc(NC(=O)CCC3CCCC3)cc2)n1` gave Anaer choline gr inactive and Anaer choline gr early 1.9.
`O=C(CCN1C(=O)c2ccccc2S1(=O)=O)Nc1ccccc1Br` gave Anaer choline gr inactive and Anaer choline gr early 0.32.
CCOC(=O)c1c(NC(=O)C2=COCCO2)sc2c1CCN(Cc1ccccc1)C2 was read as Anaer choline gr inactive and Anaer choline gr early 0.95.

Seven consecutive entries already listed, quoted:
Screening Cc1cc(NC2CCCCC2)ncn1 returned Anaer choline gr inactive and Anaer choline gr early -1.7.
Screening Cc1cccc(-c2cc(N3CCN(S(=O)(=O)c4ccc(F)c(Cl)c4)CC3)ncn2)c1 returned Anaer choline gr inactive and Anaer choline gr early 1.9.
Screening O=C1CC(c2ccc(Br)cc2)c2scc(-c3ccc(F)cc3)c2N1 (stereo not given) returned Anaer choline gr inactive and Anaer choline gr early 1.9.
For Cc1cc(C)c(/C=C/c2onc(C)c2S(=O)(=O)N2CCCC(C(=O)N3c4ccccc4CC3C)C2)c(C)c1 (stereo not given) the results were Anaer choline gr inactive and Anaer choline gr early 1.6.
Screening COc1ccc(CNC(=O)C2(C)CCCN(S(=O)(=O)c3cc(C)ccc3NC(C)=O)C2)cc1 (stereo not given) returned Anaer choline gr inactive and Anaer choline gr early -0.73.
COC(=O)c1sccc1NC(=O)NCc1c(-n2cccc2)sc2c1CCN(C)C2 was read as Anaer choline gr inactive and Anaer choline gr early 0.15.
Cc1oc2ncnc(N3CCC(C(=O)NCc4ccc(Cl)cc4)CC3)c2c1C was read as Anaer choline gr inactive and Anaer choline gr early -1.1.

(more compounds)
`COc1ccc(CC(=O)NCCc2sc3nc(-c4ccc(OC)cc4)nn3c2C)cc1` gave Anaer choline gr inactive and Anaer choline gr early 1.3.
`CCc1nn(CCCN2CCN(c3cccc(Cl)c3)CC2)c(=O)n1CCOc1ccccc1` gave Anaer choline gr inactive and Anaer choline gr early 0.56&0.41&0.17&0.49&-0.39.
CCc1c(C)nc(SCc2nc(-c3ccc(OC(C)C)cc3)oc2C)[nH]c1=O was read as Anaer choline gr inactive and Anaer choline gr early 0.31.
`O=C(NC1CCCC1)N1CCCC1c1ccc(F)cc1` (stereo not given) gave Anaer choline gr inactive and Anaer choline gr early 0.22.
COc1ccc(NC(=O)c2c(-c3ccc(C)cc3)nnc3ccccc23)cc1OC was read as Anaer choline gr inactive and Anaer choline gr early 1.6.
COCC(=O)N1CCN(c2ncnc3c2nnn3-c2cccc(OC)c2)CC1 was read as Anaer choline gr inactive and Anaer choline gr early -1.5.
O=C(NC1CCCCC1)C1=Cc2ccccc2OC=C1 was read as Anaer choline gr inactive and Anaer choline gr early 1.
O=c1[nH]nc2ccc(SCc3ccc(Cl)cc3)nn12 was read as Anaer choline gr inactive and Anaer choline gr early -0.04.
Screening O=C(C1CCN(c2ncnc3c2sc2cccc(F)c23)CC1)N1CCN(c2ccccc2)CC1 returned Anaer choline gr inactive and Anaer choline gr early -1.6.
Screening CCc1nc2nc3c(c(N4CCN(c5ccccc5)CC4)n2n1)CCC3 returned Anaer choline gr inactive and Anaer choline gr early -0.57.
For CCOC(=O)c1c(NC(=O)Cc2csc(-c3ccccc3)n2)sc2c1CCC2 the results were Anaer choline gr inactive and Anaer choline gr early -0.36.
For CC1C(=O)N(C)C(=O)c2nc[nH]c21 (stereo not given) the results were Anaer choline gr inactive and Anaer choline gr early 0.35.

Sorted by number of heavy atoms (descending): some entries from above
For CCOC(=O)c1c(NC(=O)Cc2csc(-c3ccccc3)n2)sc2c1CCC2 the results were Anaer choline gr inactive and Anaer choline gr early -0.36.
O=c1[nH]nc2ccc(SCc3ccc(Cl)cc3)nn12 was read as Anaer choline gr inactive and Anaer choline gr early -0.04.
For CC1C(=O)N(C)C(=O)c2nc[nH]c21 (stereo not given) the results were Anaer choline gr inactive and Anaer choline gr early 0.35.

Carrying on.
`COc1ccc(OC)c(NC(=O)CSc2nc(N3CCc4ccccc4C3)nc3ccccc23)c1` gave Anaer choline gr inactive and Anaer choline gr early 0.51.
For CCCC(=O)N(Cc1nc2nc(C)cc(=O)n2[nH]1)c1ccc(Cl)cc1 the results were Anaer choline gr inactive and Anaer choline gr early -0.98.
Screening COCCn1c(CCCC(=O)N2CCc3ccccc32)nc2cccnc21 returned Anaer choline gr inactive and Anaer choline gr early 0.22.
For O=S(=O)(NCc1nc2cccnc2n1C1CCCC1)c1ccc(Cl)cc1 the results were Anaer choline gr inactive and Anaer choline gr early -0.72.
`CCc1ccc(NC(=O)N2CCN(Cc3nc(-c4ccc(C)cc4)oc3C)CC2)cc1` gave Anaer choline gr inactive and Anaer choline gr early -1.1.
`CCCCCCCCC(=O)NCc1cc(OC)c(O)cc1I` gave Anaer choline gr inactive and Anaer choline gr early -0.57.
`CNC(=O)c1ccc(-c2nc(CN3CCN(C(=O)Nc4ccc(C(=O)OC)cc4)CC3)c(C)o2)cc1` gave Anaer choline gr inactive and Anaer choline gr early -0.62.
`Cc1ccc(Cn2nnc3c(N4CCOCC4)nc(C)nc32)cc1` gave Anaer choline gr inactive and Anaer choline gr early 0.05.
COc1ccc(S(=O)(=O)Nc2ccc(-c3ccc(N4CCCC4)nn3)cc2)cc1 was read as Anaer choline gr inactive and Anaer choline gr early 0.36.

Screening results deposited in PubChem by ICCB-Longwood Screening Facility, Harvard Medical School.
